AmpC nodet inh = Promiscuous and Specific Inhibitors of AmpC Beta-Lactamase (assay without detergent) | AmpC nitrocefin hydrolysis, absorbance 480 nm, no detergent; potencies from a single point are estimates | P00811 | AID 585, 2007 | Potency, µM (titrated, usually from 28.7 µM), for the others: top-dose activity change, negative = inhibition | 1.8% of 71,000 active; active = falling curve, for most hits resting on a single point; inconclusive = weak or doubtful change; inactive = flat or rising curve; further: % of control where 0% means no effect; about half of the hits show no inhibition at the top dose; a quarter of the inactives give rising signals
Target sequence (P00811 whole entry, looked up): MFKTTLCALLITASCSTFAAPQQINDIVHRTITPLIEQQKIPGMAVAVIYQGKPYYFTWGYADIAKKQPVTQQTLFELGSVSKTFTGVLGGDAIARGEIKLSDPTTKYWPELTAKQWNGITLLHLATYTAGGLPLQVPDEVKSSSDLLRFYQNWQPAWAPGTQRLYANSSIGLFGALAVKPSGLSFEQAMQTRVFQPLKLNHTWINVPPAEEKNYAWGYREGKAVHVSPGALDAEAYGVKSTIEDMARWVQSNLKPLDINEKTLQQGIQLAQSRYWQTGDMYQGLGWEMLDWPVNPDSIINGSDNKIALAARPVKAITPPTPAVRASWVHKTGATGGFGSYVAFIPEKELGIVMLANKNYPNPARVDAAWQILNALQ
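AmpC in 20 mM phosphate buffer pH 7.0 was preincubated 15 min at room temperature with compounds. Nitrocefin (800 uM stock) was then added and hydrolysis followed at 480 nm every 20 s for 4 min.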
An asterisk follows results filed as active; u = inconclusive; & = joins results of further samples; [ ] = remark or other dose. Potency means the concentration at half of the fitted maximal effect. Not all compounds are listed; rates above refer to the full screens.

SMILES	AmpC nodet inh
c1ccc2occc2c1	0%
Cc1cccc(NC(=O)COc2ccc(Br)cc2C)n1	0%
O=C(NC12CC3CC(CC(C3)C1)C2)c1ccc(=O)oc1	-1%
O=c1c2cc(Cl)cc(Cl)c2nc(CN2CCOCC2)n1-c1ccccc1F	0%
Cc1cccn2c(=O)c3cc(C(=O)N(C)C)n(C)c3nc12	-11%
Nc1c(C(=O)c2cccs2)oc2ccccc12	-18%
O=C(Nc1ccc(S(=O)(=O)Nc2cnc3ccccc3n2)cc1)c1ccc(Br)o1	-18%
CC(C)(C)NC(=O)c1cnn2c1NC(c1ccc(F)cc1)CC2C(F)(F)F (centres undefined)	24%
C=C(C)CSc1nnc([C@@H]2CCCN2C(=O)OC(C)(C)C)o1	62%
Cn1c(CCCNC(=O)c2cccs2)nc2ccccc21	-6%
CCOC(=O)c1ncn2c1[C@H]1CCCN1C(=O)c1cc(OC)ccc1-2	21%&14%
CCc1ccc(CCC(=O)O)nc1	2%[5.75 µM]
Cc1cc(Cl)ccc1OC(C)C(=O)Nc1ccccc1N1CCOCC1 (centres undefined)	28%
COCC(=O)N1CCC2(CC1)CN(c1ccccc1)C2	-1%
CC(C)(C)c1csc(NC(=O)c2ccc(Cl)s2)n1	-17%
CC(C)CN1CCCC2(CCN(C(=O)c3ccncc3)CC2)C1	63%
Cc1cc(=O)[nH]c(SCc2nc3ccccc3n2Cc2ccccc2)n1	-15%
CN(C)CCCn1cc(C2=C(c3c[nH]c4ccccc34)C(=O)NC2=O)c2ccccc21	36%
CCC(=O)Nc1ccc(NC(=O)c2c(C)nc3ccccn23)cc1	-4%
CCn1c(=O)c(C(=O)NCc2cccnc2)c(O)c2ccccc21	130%
O=C(CCC1COc2ccccc2O1)Nc1ccc(Cl)cn1 (centres undefined)	-9%
O=C(c1ccco1)N1CCN(C(=O)c2cc(-c3ccccn3)nc3ccccc23)CC1	40%
CCCS(=O)(=O)N1CCN(c2ccccn2)CC1	3%
O=C(Nc1ccc(-c2nc3ccccc3o2)cc1)C1CCCO1 (centres undefined)	76%
CCOC(=O)c1ccc(CSc2n[nH]c(C)n2)o1	0%
SMILES	AmpC nodet inh
O=C(O)C1C2C=CC(O2)C1C(=O)NCCC1=CCCCC1 (centres undefined)	-2%
CCCCOC(=O)C1[C@H]2C(=O)N(CCc3ccccc3)C[C@]23C=C[C@H]1O3 (some centres undefined)	17%
c1ccc(-c2csc(Nc3nc(N4CCOCC4)nc(N4CCOCC4)n3)n2)cc1	17%
COc1cccc2sc(N3CCN(c4nc5ccccc5s4)CC3)nc12	16%
Cc1cc(C)nc(NS(=O)(=O)c2ccc(-n3cccc3)cc2)n1	-3%
Cc1ccc(O)c(C(=O)c2cnc3c(c2)CN(CCC(C)C)C(=O)N3)c1	u
CSCCC(Nc1nc2ccccc2s1)C(=O)O (centres undefined)	-10%
COc1ccc(CCNC(=O)CSc2nnc(Cn3c(=O)sc4ccccc43)n2C)cc1OC	58%
O=C(C1CCC(CNc2c(N3CCOCC3)c(=O)c2=O)CC1)N1CCN(c2ccccc2)CC1 (centres undefined)	95%
CCOc1cc(-c2nc(-c3ccc(OC)cc3)no2)cc(OCC)c1OCC	-11%
COc1ccccc1OCCn1c(=O)sc2ccccc21	-2%
CCOC(=O)Cc1csc(SCn2nnc3ccccc3c2=O)n1	7%
COc1ccc(N2C(=O)CCC(C(=O)O)C2c2ccc(F)cc2)cc1 (centres undefined)	1%
CC(=O)N1CCc2cc(S(=O)(=O)NC(CC(C)C)C(=O)N3CCc4ccccc4C3)ccc21 (centres undefined)	124%
CNCC(O)c1ccc(O)cc1 (centres undefined)	-5%
Cc1ccc(S(=O)(=O)N2CCN(c3nc(C)nc4sc(C)c(C)c34)CC2)cc1	14%
CC1CN(C2CC(C)(C)NC(C)(C)C2)CCC1=O (centres undefined)	-3%
CNc1oc(Cc2cccc3ccccc23)nc1C#N	3%
CN1CCN(c2nc(-c3ccccc3)nc3c2oc2ccccc23)CC1	89%
Cc1nc(C)c(NC(=O)N2CCc3ccccc32)cc1NC(=O)N1CCc2ccccc21	114%
CCCCN(C)Cc1c(C)[nH]c2c(Cl)cccc2c1=O	-10%
COC(=O)C1C(O)=C(C(C)=N)C(=O)CC1(C)C (centres undefined)	3%
O=C(NCCN1CCOCC1)c1csc2c1CCCCC2	-3%
O=C(Nc1nc(-c2ccccn2)cs1)c1ccc(S(=O)(=O)N2CCCCC2)cc1	43%
COc1ccc(CCNC(=O)CCS(=O)(=O)c2ccc3c(c2)CCN3C(C)=O)cc1OC	10%

Four compounds out of the list, arranged by heavy-atom count, smallest number first:
SMILES	AmpC nodet inh
COC(=O)C1C(O)=C(C(C)=N)C(=O)CC1(C)C (centres undefined)	3%
O=c1c2cc(Cl)cc(Cl)c2nc(CN2CCOCC2)n1-c1ccccc1F	0%
CN(C)CCCn1cc(C2=C(c3c[nH]c4ccccc34)C(=O)NC2=O)c2ccccc21	36%
COc1ccc(CCNC(=O)CSc2nnc(Cn3c(=O)sc4ccccc43)n2C)cc1OC	58%

(listing goes on)
SMILES	AmpC nodet inh
COc1ccc(CCC(=O)Nc2nc3c(s2)CN(C)CC3)cc1OC	10%
COc1cc(CC(=O)NCc2ccc3c(c2)OCO3)cc(OC)c1OC	-2%
CCOC(=O)c1nnn(-c2nonc2N)c1COc1ccccc1	-10%
CCc1cc(C=NC2CCCCC2)c(O)s1	-19%
Cc1ccc(N2C(=O)CSC2c2cccnc2)cc1F (centres undefined)	3%
Cc1ccc2occ(C(=O)c3ccco3)c(=O)c2c1	3%
CCCc1cc(N2CCCC(C(=O)Nc3cc(Cl)ccc3OC)C2)n2ncnc2n1 (centres undefined)	92%
COc1ccccc1N1C(=O)C2C3C=CC(C3)C2(C)C1=O (centres undefined)	7%
CCOC(=O)c1oc2cccc(OCC(O)CNC(C)C)c2c1C (centres undefined)	1%
CC(C)C[C@H](N)CSSC[C@@H](N)CC(C)C	8%
O=C(CN1CCCCC1)Nc1nnc(-c2ccccc2)s1	-21%
CC(=O)N1CCC2(CC1)CCN(c1ccncc1)CC2	7%
C[C@@H](C(=O)Nc1ccc2ccccc2c1)[C@H]1C[C@]1(C)[C@H](NC(=O)c1ccccc1)c1ccccc1	11%
O=C(/C=C\Nc1cccc(F)c1)c1ccc2c(c1)OCO2	u
CC(C)N1C(=O)CCC1C(=O)NC1CCCC1 (centres undefined)	-2%
N=c1c2c(n(Cc3ccc(F)cc3)c3c1CCC3)CCC2	5%
COc1cccc(-c2nc3ccc(O)cc3c(=O)o2)c1	-8%
COc1ccc(-c2nc3cnc(N4CCOCC4)nc3n(CCC#N)c2=O)cc1	16%
Cc1ccc(C(=O)NCc2ccc3c(c2)OCO3)cc1N1CCCC1=O	14%
Cc1cc(C)nc(NC2=NCC(=O)N2CCc2c[nH]c3ccccc23)n1	14%
COc1cc2nc(NCC3CCCO3)n3nc(-c4cccnc4)nc3c2cc1OC (centres undefined)	139%
Fc1ccccc1Cn1nnc2c(NCCc3ccccn3)ncnc21	26%
CC(=O)c1ccc2c3c(cccc13)C(=O)N(c1c(C)nn(C)c1C)C2=O	20%
CCCc1nc(SCC(=O)Nc2cc(C)on2)c2c(=O)n(C)c(=O)n(C)c2n1	-2%
COc1ccc(NC(=O)c2cc(CN3C(=O)c4ccccc4C3=O)ccc2OC)cn1	86%

Of the compounds above, seven contain fluorine.
SMILES	AmpC nodet inh
O=c1c2cc(Cl)cc(Cl)c2nc(CN2CCOCC2)n1-c1ccccc1F	0%
CC(C)(C)NC(=O)c1cnn2c1NC(c1ccc(F)cc1)CC2C(F)(F)F (centres undefined)	24%
COc1ccc(N2C(=O)CCC(C(=O)O)C2c2ccc(F)cc2)cc1 (centres undefined)	1%
Cc1ccc(N2C(=O)CSC2c2cccnc2)cc1F (centres undefined)	3%
O=C(/C=C\Nc1cccc(F)c1)c1ccc2c(c1)OCO2	u
N=c1c2c(n(Cc3ccc(F)cc3)c3c1CCC3)CCC2	5%
Fc1ccccc1Cn1nnc2c(NCCc3ccccn3)ncnc21	26%

(listing goes on)
SMILES	AmpC nodet inh
NC(=O)C1CCN(S(=O)(=O)c2cccc(S(=O)(=O)N3CCCCC3)c2)CC1	16%
C1OCOCO1	-10%
C=CCN(C(=O)Nc1ccccc1)C1CC(=O)N(c2ccc(OC)cc2)C1=O (centres undefined)	-3%
O=C(Nc1cccnc1)c1cc(-c2ccco2)on1	-13%
O=C(C1COc2ccccc2O1)N1CCOCC1 (centres undefined)	-15%
CC(C)C(O)(C(C)C)C(C)C	2%[5.75 µM]
COCCNC(=O)Cn1nc(-c2ccccc2OC)ccc1=O	-2%
CCn1cc(C(=O)OCc2ccc(F)cc2)c(=O)c2ccc(C)nc21	41%
COc1ccc(CNc2nc3c(c(C(F)(F)F)n2)CCCCC3)cc1	u
COc1ccc(C(=O)Nc2cccc3c2C(=O)NC3=O)cc1S(=O)(=O)N1CCOCC1	13%
CCOC(=O)c1cn2c3c(c(F)c(F)c(F)c3c1=O)SC(N1CCCC1)=N2	22%
CCn1c(SCC(=O)NCc2cccs2)nc2c1c(=O)n(C)c(=O)n2C	-7%
CSc1cccc(NC(=O)CSc2nc3ccccc3o2)c1	-4%
CCN(CC)CCN1C(=O)Cn2c(C)c(C)c3cccc1c32	27%
O=C(COc1ccccc1)Nc1ccccc1N1CCN(c2ccc(F)cc2)CC1	-12%
Cn1c(C(O)c2ccccc2)nc(Cl)c1Cl (centres undefined)	2%
COC(=O)C(C)Sc1nc2c([nH]c3ccccc32)c(=O)n1C (centres undefined)	50%
Cc1[nH]nc2c1C1(CCN(Cc3ccccc3)CC1)C(C#N)=C(N)O2	-20%
O=C(NC1CCCc2ccccc21)C1CCN(c2nnc(-n3cccc3)s2)CC1 (centres undefined)	53%
O=C(O)CCC(C(=O)O)n1c(O)c(C2=c3ccccc3=NC2=O)sc1=S (centres undefined)	-9%
CCC(C)n1c(SC(C)C#N)nc2ccccc2c1=O (centres undefined)	14%
Clc1cccc(-c2nnc3sc(-c4ccc5c(c4)OCO5)nn23)c1	-22%
Cc1cccc(N2CCN(C(=O)Cn3ccc4ccccc4c3=O)CC2)c1C	24%
COc1cccc(NC(=O)N2CCCC2C(=O)Nc2ccc3c(c2)OCO3)c1 (centres undefined)	5%
CN(C)c1ccc(-c2ccc3ncnc(N4CCNCC4)c3c2)cc1	12%
SMILES	AmpC nodet inh
Cc1cc(NC(=O)c2cc(-c3cccnc3)nc3c(C)c(C)ccc23)no1	102%
O=C(Nc1ccccc1C(=O)Nc1ccccc1C(=O)NCc1ccco1)c1ccco1	-15%
CC1=CC(c2ccccc2)n2nc(N3C(=O)c4ccccc4C3=O)nc2N1 (centres undefined)	10%
COc1cc2c(C(=O)NCc3ccc(C)o3)cn(CC(C)C)c(=O)c2cc1OC	110%
COc1ccc(C(=O)N2CCC3(CC2)CCN(c2ccccn2)CC3)cc1	98%
CCCc1cc(=O)[nH]c(SCC(=O)NC(=O)OCC)n1	-4%
COC(=O)c1ccc(NC(=O)Cn2nc(SC)n(N)c2=S)cc1	-12%
Cc1ccc2c(c1)nnn2C1CCN(C(=O)c2cccs2)CC1	0%
O=c1oc2ccccc2cc1-c1nc2ccccc2o1	-3%
CCOC(=O)COc1ccc(C(=O)NC2CCCCC2)cc1	9%
O=C1NC2(CCCC2)N=C1c1ccc(Cl)cc1	-12%
Cc1cc(Cl)c(S(=O)(=O)NCCC(=O)O)cc1OCC(N)=O	7%
Cc1ccc(CN2CC(C(=O)Nc3ccc(S(=O)(=O)Nc4cc(C)nc(C)n4)cc3)CC2=O)cc1 (centres undefined)	8%
CCCCNC(=O)c1ccccc1NS(=O)(=O)c1ccc2c(c1)OCCO2	-12%
CCS(=O)(=O)N1CCC(C(=O)NC2CCCCC2)CC1	0%
C=CCc1cccc(CNc2nc3ccccc3n2CC)c1O	-3%
COc1ncc2nc(-c3cc(F)cc(F)c3)c(=O)n(-c3ccccc3)c2n1	14%
C=CCn1cnc2c(c1=O)c1nc3ccccc3nc1n2/N=C/c1cc(OC)c(OC)c(OC)c1	158%
COc1ccc(NC(=O)CN(c2cc(C)cc(C)c2)S(=O)(=O)c2c(C)noc2C)cc1	3%
CCOC(=O)c1c(C2CC2)csc1NC(C)=O	22%
Oc1ccccc1-c1cc(C(F)(F)F)[nH]n1	-11%
CC(C)Cc1nc2oc3c(N4CCN(CCO)CC4)ncnc3c2c2c1CCCC2	126%
CC1(C)C(=O)NC2=C1C(=O)C(=O)c1ccccc12	1%
COC(=O)c1ccccc1N(C)S(C)(=O)=O	-4%
CS(=O)(=O)N(CC(=O)N1CCN(c2cccc(Cl)c2)CC1)c1cccc(F)c1	86%
SMILES	AmpC nodet inh
O=C(O)c1ccc(S(=O)(=O)c2ccc3c(c2)C(=O)N(Cc2ccco2)C3=O)cc1	-2%
O=C(CSc1nnnn1-c1ccc(Cl)cc1)N1CCc2ccccc2C1	-11%
O=C1c2ccccc2C(O)N1Cc1ccco1 (centres undefined)	-8%
CC(=O)c1sc2nc(-c3cccs3)cc(C(F)(F)F)c2c1N	16%
Cc1cc(NC(=O)CSc2n[nH]c(CC(C)C)n2)no1	-12%
COc1ccc(N2C(=O)CSC23CCCCC3)cc1	34%

Some of the entries above, reformatted.
structure | AmpC nodet inh
O=C(CSc1nnnn1-c1ccc(Cl)cc1)N1CCc2ccccc2C1 | -11%
O=C1c2ccccc2C(O)N1Cc1ccco1 (centres undefined) | -8%
CC(=O)c1sc2nc(-c3cccs3)cc(C(F)(F)F)c2c1N | 16%

High-throughput results deposited in PubChem by National Center for Advancing Translational Sciences (NCATS).
